# Compound activity (PubChem BioAssay)
# D2 PAM: human D2 receptor positive allosteric modulation | P14416 | DiscoveRx D2 beta-arrestin cells, luminescence, 90 min; 100% = 57 uM dopamine signal | potentiation, % (test concentration not listed) | 360,000 tested, 0.23% active; active = potentiation of 50% or more; inconclusive = 30% to 50%; inactive = 30% or less;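 further: compound concentration not given in the record; tested on top of an EC20 dose of dopamine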
# Target sequence (P14416 whole entry, looked up): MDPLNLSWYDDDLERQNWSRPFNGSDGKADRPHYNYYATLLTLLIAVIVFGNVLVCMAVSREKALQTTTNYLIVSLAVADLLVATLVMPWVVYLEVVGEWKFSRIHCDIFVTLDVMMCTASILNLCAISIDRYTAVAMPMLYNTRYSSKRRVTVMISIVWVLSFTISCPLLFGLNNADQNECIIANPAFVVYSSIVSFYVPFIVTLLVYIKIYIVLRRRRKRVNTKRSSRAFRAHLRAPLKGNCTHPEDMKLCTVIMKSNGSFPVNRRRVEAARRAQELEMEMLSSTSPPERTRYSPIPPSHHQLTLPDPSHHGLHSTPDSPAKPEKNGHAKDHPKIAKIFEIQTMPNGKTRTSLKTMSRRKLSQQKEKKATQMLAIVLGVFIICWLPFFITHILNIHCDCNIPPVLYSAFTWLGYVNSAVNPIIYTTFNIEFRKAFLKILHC
#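 PathHunter beta-arrestin assay in DiscoveRx D2 cells. Compounds were added with an EC20 of dopamine (50 nM final) for 90 min at 37 deg C. Luminescence was read 1 h after detection reagent, with 57 uM dopamine as the EC100 control.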
# TRPML1 ag: agonists of human TRPML1 channel; Q9GZU1; AID 624414; activation, % (test concentration not listed); TRPML1-expressing cells, Ca2+ dye fluorescence, FDSS; host cell line not named in the record; reference of the full effect not given here; 410,000 tested, 0.12% active; in the data active = activation above about 50%; inconclusive = about 30% to 50%; inactive = below about 30%; further: 0% is about no effect; the text of the record puts the active cut at 80%
# Target sequence (Q9GZU1 whole entry, looked up): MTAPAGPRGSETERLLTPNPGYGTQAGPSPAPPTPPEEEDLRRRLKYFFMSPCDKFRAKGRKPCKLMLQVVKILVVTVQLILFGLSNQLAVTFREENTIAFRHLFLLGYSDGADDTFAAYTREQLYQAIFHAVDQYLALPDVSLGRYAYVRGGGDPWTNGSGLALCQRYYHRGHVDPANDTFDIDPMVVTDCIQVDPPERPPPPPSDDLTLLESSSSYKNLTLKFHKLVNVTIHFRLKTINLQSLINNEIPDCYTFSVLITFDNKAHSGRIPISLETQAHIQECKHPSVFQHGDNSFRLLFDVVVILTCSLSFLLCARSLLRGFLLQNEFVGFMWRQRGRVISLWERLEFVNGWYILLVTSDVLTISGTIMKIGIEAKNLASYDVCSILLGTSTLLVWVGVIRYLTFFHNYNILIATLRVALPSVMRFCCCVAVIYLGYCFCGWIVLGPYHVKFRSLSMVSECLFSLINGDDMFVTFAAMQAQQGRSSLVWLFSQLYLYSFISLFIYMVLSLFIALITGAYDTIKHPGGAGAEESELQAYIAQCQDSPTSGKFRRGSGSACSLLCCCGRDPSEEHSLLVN
#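 Cells: TRPML1-DL, 1X Tet inducer, ~16 h at 37 degrees C/5% CO2. Dye: ABD Ca8 no-wash + quencher, 45-90 min RT. Read: 10 s baseline, compound add, 110 s agonist phase; 54-4 EC80 (4uM final), 110 s antagonist phase.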
# Six1-Eya2 blk: inhibitors of human Six1/Eya2 interaction. AlphaScreen GST-Six1/His-Eya2 binding, biochemical; hits give low values; control for the full effect not named in the record. activity change, % (concentration not given with the values). 360,000 tested, 0.56% active. AID 651725; in the data active = activity change below about -65%; inconclusive = about -30% to -65%; inactive = above about -30%; further: on the % scale 0 is the no-effect control and ±100 the full control effect
#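 Homogeneous AlphaScreen proximity assay pairing GST-Six1 with His-tagged Eya2 (added as 5X mix: 250 nM and 500 nM) in 50 mM Tris pH 8.0, 300 mM NaCl, 1 mM TCEP. Glutathione donor and nickel acceptor beads; 1 h, 37 °C, dark.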
# CtBP-E1A inh: inhibitors of CtBP/E1A interaction | AlphaScreen GST-E1A/His-CtBP binding, 1536-well; hits give low values; control for the full effect not named in the record | activity change, % (test concentration not listed) | 340,000 tested, 0.49% active; in the data active means activity change below about -65%; inconclusive means about -30% to -65%; inactive means above about -30%; further: on the % scale 0 is the no-effect control and ±100 the full control effect; compound concentration not given in the record
#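 Homogeneous bead-based format: GST-tagged E1A captured on glutathione donor beads, His-tagged CtBP on nickel acceptor beads; compounds precede bead addition by 2 h at 37 °C.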
# PINK1 expr mod: changes PINK1 expression; 410,000 tested, 0.2% active; AID 624263; Potency, µM (top dose mostly 76.6 µM), for the others: top-dose activation (PINK1 increase), actives largely listed as activators; PINK1 immunofluorescence, high-content cytometry, 24 h; active = well fitted activation curve with a large enough effect; inconclusive = small, poorly fitted or top-dose-only effect; inactive = flat fitted curve, though single readings scatter; cell line not stated here;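 further: potency means the concentration at half of the fitted maximal effect; % of control where 0% means no effect; nearly all actives have a fitted effect of over 65% in size; a mitochondrial uncoupler was the plate control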
#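 Compound titrations (5 concentrations, 24 h) on a stable cell line; DMSO and CCCP controls. Endpoint: fixed-cell PINK1 immunofluorescence with mitochondrial, cell and nuclear markers, scanned by microplate cytometer.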
# D2 ag: activates the human D2 dopamine receptor. 360,000 tested, 0.084% active. activation, % (no concentration beside the values). DiscoveRx PathHunter D2 beta-arrestin, luminescence, 90 min; 100% = 57 uM dopamine signal. P14416; in the data active = activation above about 40%; inconclusive = about 15% to 40%; inactive = below about 15%; further: compound concentration not given in the record; the text of the record calls up to 30% inactive
#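 Agonist mode: compounds alone added to overnight-plated D2 PathHunter cells for 90 min at 37 C, with 57 uM final dopamine (EC100) defining full response. Beta-arrestin recruitment detected by chemiluminescent reagent, read after 1 h at ambient temperature.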
# * = called active by the depositor; ? = inconclusive; . = no result given; & = joins results of further samples; [ ] = remark or other dose.
No.	compound	D2 PAM	TRPML1 ag	Six1-Eya2 blk
1	CCC(=O)N1CCc2cc(S(=O)(=O)Nc3ccc4c(c3)OCCO4)ccc21	2	0.4	3
2	COc1ccc(C(=O)N/N=C(\C)CC(=O)N2CCN(C=O)CC2)cc1	-18	0.8	-1
3	Cc1cc(OCC(=O)Nc2ccc(S(=O)(=O)N3CCN(C)CC3)cc2)cc(C)c1Cl	8	1.5	-22
4	Cc1ccc(S(=O)(=O)NNC(=O)C(=O)NNc2ccccn2)cc1	19	-0.5	-88*
5	c1ccc(-n2cnc3cc(NCc4ccco4)ccc32)cc1	-15	2.2	-13
6	Cn1c(SCC(=O)Nc2ccccc2F)nnc1-c1cccnc1	0	0.1	0
7	O=[N+]([O-])c1ccc(NN=C2CC3CCC2C3)c([N+](=O)[O-])c1 (stereo not given)	5	1.1	-20
8	CCOc1ccc(OCC)c(NC(=O)CN2CCN(c3cccc(C)c3C)CC2)c1	-20	-0.7	-2
9	CC(=O)Nc1ccc(S(=O)(=O)N(Cc2ccccc2)C(C)C)cc1	-14	-0.8	10
10	OC1CCCN(Cc2ccccc2)C1 (stereo not given)	1	-0.2	-7

No.	CtBP-E1A inh	PINK1 expr mod	D2 ag
1	0	1.7%	0.3
2	-7	-0.7%	-3.3
3	-20	0.9%	0.6
4	-93*	1.7%	-1.5
5	4	6.3%	-3.6
6	5	0.2%	-1.6
7	-14	0.2%	4.6
8	3	6.4%[38.3 µM]	1.8
9	4	0.5%	-1.9
10	-18	.	-2.1

# CtBP-E1A inh: hit marks shown above.
entry | SMILES | D2 PAM | Six1-Eya2 blk | CtBP-E1A inh | PINK1 expr mod | D2 ag
4 | Cc1ccc(S(=O)(=O)NNC(=O)C(=O)NNc2ccccn2)cc1 | 19 | -88* | -93* | 1.7% | -1.5

# Continuation.
No.	compound	D2 PAM	TRPML1 ag	Six1-Eya2 blk
11	COc1cc(/C=N/NC(=O)C23CC4CC(CC(C4)C2)C3)cc(Br)c1O	-15	-0.4	2
12	COC(=O)c1c(N)[nH]c(C(=O)c2ccccc2)c1-c1ccccc1Br	.	-1.1	-5
13	O=C(COc1ccc(-c2nnco2)cc1)Nc1c(F)cccc1F	-2	-0.6	-6
14	COc1ccc([N+](=O)[O-])cc1N(CC(=O)NCC1CCCO1)S(C)(=O)=O (stereo not given)	18	0.4	4
15	CN(CC(=O)Nc1ccccc1Cl)C(=O)CN1C(=O)C2CCCCC2C1=O (stereo not given)	-7	0.1	12
16	Cc1ccc(OCC(=O)NNC(=S)NC(=O)c2cccs2)c(C)c1	4	1.5	22
17	CCOC(=O)C1=C(C)Nc2sc(C(=O)c3ccc(Br)cc3)c(N)c2C1c1ccc(C(=O)OC)cc1 (stereo not given)	-15	0.2	3
18	COCCCN1C(=O)N(c2ccccc2)C(=O)C1CC(=O)Nc1ccc(F)cc1 (stereo not given)	-2	0.8&0.3	-1
19	Fc1ccc(NCc2nnc(SCc3ccccc3)o2)cc1	-7	0.4	5
20	COc1ccc(NC(=O)CN2CCC(C(N)=O)(N3CCCCC3)CC2)cc1	-17	0.4	2

No.	CtBP-E1A inh	PINK1 expr mod	D2 ag
11	-10	2.6%	-5.5
12	-5	2.8%	.
13	1	-0.9%	-1.5
14	11	1.4%	-0.9
15	-23	-2.5%	-0.8
16	0	0.5%	-6.8
17	7	6.6%[38.3 µM]	-1.6
18	6	-2.6%&0.3%	2.0
19	1	1.2%	1.5
20	5	-0.6%[38.3 µM]	1.0

# (next part)
No.	compound	D2 PAM	TRPML1 ag	Six1-Eya2 blk
21	COc1ccc(C(=O)CCc2ccccc2)c(O)c1	-3	0.0	19
22	N/C(=N\OC(=O)c1ccc2c(c1)OCO2)c1ccc([N+](=O)[O-])cc1	6	0.7	-1
23	Cc1nn(Cc2ccc(F)cc2)c(C)c1NC(=O)c1cnn2c1NC(c1cccs1)CC2C(F)(F)F (stereo not given)	-2	2.1	-3
24	CC(C)CNc1ncnc2c1ncn2[C@H]1CN(CCN2CCOCC2)C[C@@H](CO)O1	10	-0.2	-6
25	O=C(N/N=C/c1ccccn1)c1cc(-c2ccccc2Cl)n[nH]1	-15	0.4	?
26	Cc1ccc(CN2C(=O)CCC2C(=O)NCc2ccco2)cc1 (stereo not given)	7	0.0	-1
27	CNC(=S)NNC(=O)COc1ccc(C)c(C)c1	-9	-0.8	9
28	CC(=O)Nc1ccccc1C(=O)C(=O)Nc1ccccc1	-2	0.2	9
29	CCN(CC)S(=O)(=O)c1ccc2c(c1)c(=O)c(C(=O)N1CCN(c3ccccn3)CC1)cn2C	-8	0.2	1
30	Cc1ccc(NC(=O)COC(=O)CCc2c(C)nc3ncnn3c2C)cc1	-6	1.2	4

No.	CtBP-E1A inh	PINK1 expr mod	D2 ag
21	61	-1.2%	-6.2
22	0	-0.7%	3.9
23	1	0.2%[38.3 µM]	0.4
24	9	3.7%	11
25	?	1.2%	-0.7
26	14	1.1%	-4.3
27	-17	-1.7%	-8.7
28	10	1.1%	-0.7
29	-4	-0.2%	-6.3
30	1	2.2%	0.5

# (next part)
No.	compound	D2 PAM	TRPML1 ag	Six1-Eya2 blk
31	COc1cccc(NC(=O)CSc2nnc(CN3CCOCC3)n2C)c1	22	0.7	-1
32	CN(C)CCNC(=O)C1Cc2c(-c3ccccc3Oc3ccccc3)ccnc2O1 (stereo not given)	-19	0.3	1
33	C=CCOc1ccccc1CN1CCCC(CCC(=O)N(C)CCc2ccccn2)C1 (stereo not given)	-7	-0.3	12
34	COC(=O)c1sccc1NS(=O)(=O)c1ccccc1	-5	2.2	2
35	O=C(CSc1nnc2n1CCCCC2)Nc1ccc(N2CCOCC2)cc1	4	1.0	2
36	CCOC(=O)c1cc(NC(=O)N(C(C)C)C(C)C)c(C)nc1C	-13	0.3	-1
37	OC(CSc1nnnn1-c1ccccc1)Cn1c2ccccc2c2ccccc21 (stereo not given)	.	0.5	-3
38	c1cncc(CSc2nnc3ccc(-c4cccs4)nn23)c1	-1	.	2
39	O=C(CC1CCCCC1)Nc1ncn[nH]1	-6	1.1	-7
40	COc1ccc(S(=O)(=O)N2CCN(CCc3ccccc3)CC2)cc1	-7	0.6	-5

No.	CtBP-E1A inh	PINK1 expr mod	D2 ag
31	2	-0.3%	0.5
32	-6	1.3%	-11
33	2	-0.7%	4.2
34	8	2.1%	-0.4
35	0	4.9%	3.7
36	-3	3.3%	-0.4
37	0	-0.3%	.
38	0	0.2%	-4.8
39	-12	0.3%	-0.6
40	-3	-1.9%	-2.2

# Later entries
No.	compound	D2 PAM	TRPML1 ag	Six1-Eya2 blk
41	CCCC[C@H](CC(=O)c1ccccc1)[C@@H](OC(C)=O)C(=O)Oc1c(C(C)C)cccc1C(C)C	-11	-0.1	8
42	Cc1cc(C(=O)N2CCN(S(C)(=O)=O)CC2)cs1	-6	1.4	5
43	O=C(Oc1ccc(-c2nnco2)cc1)c1ccc(F)c(S(=O)(=O)N2CCOCC2)c1	0	0.7	-4
44	Cc1c(NC(=O)CN2c3cccc4cccc(c34)S2(=O)=O)c(=O)n(-c2ccccc2)n1C	-16	-0.5	1
45	CC(C)(C)NCCOCCOc1ccc(Cl)cc1C(C)(C)C	-14	0.2	14
46	Cc1cc(C)nc(NC(=O)c2ccc(C)c(C)c2)n1	-15	-0.7	8
47	O=C(NC(=S)Nc1ccc(-c2nc3ncccc3o2)cc1)c1ccccc1F	-6	-0.2	10
48	Cc1cccc(OCc2nnc(NC(=O)Cc3cccs3)s2)c1	-2	0.4	0
49	Cc1ccc(S(=O)(=O)N(C)C)cc1-n1c(SCC(=O)Nc2ccc(F)c(F)c2F)nc2ccccc2c1=O	-27	0.7	-16
50	CC(OC(=O)/C=C/c1ccccc1)C(=O)Nc1ccc2c(c1)OCCO2 (stereo not given)	-7	-0.1	-18

No.	CtBP-E1A inh	PINK1 expr mod	D2 ag
41	3	2.7%	-2.3
42	-1	17%[38.3 µM]	-1.0
43	-1	-2.2%	-0.1
44	7	-0.4%	-1.9
45	.	4.9%	-7.1
46	6	0.1%	0.3
47	.	7.7%	-0.5
48	1	9.6%[38.3 µM]	-2.5
49	7	0.7%	-0.1
50	.	1.7%	-1.8

# Full records, quoted from the list. Order of values: D2 PAM	TRPML1 ag	Six1-Eya2 blk	CtBP-E1A inh	PINK1 expr mod	D2 ag
# Profile of `O=C(NC(=S)Nc1ccc(-c2nc3ncccc3o2)cc1)c1ccccc1F` : -6	-0.2	10	.	7.7%	-0.5
# Profile of `CC(C)(C)NCCOCCOc1ccc(Cl)cc1C(C)(C)C` : -14	0.2	14	.	4.9%	-7.1

# Next part.
No.	compound	D2 PAM	TRPML1 ag	Six1-Eya2 blk
51	O=C(Cn1ccc2ccccc2c1=O)NCC(=O)N1CCN(c2ccc(F)cc2)CC1	-5	-0.6	-5
52	Cc1ccc(-n2ncc(C#N)c2/N=C/N(C)C)cc1	3	-0.2	0
53	COc1ccc(C2C(C(C)=O)=C(O)C(=O)N2C)c(OC)c1 (stereo not given)	19	-0.9	6
54	COc1ccc(NS(=O)(=O)c2cn(C)nc2C)cc1	-16	2.0	-1
55	CCn1c(SCC(=O)N(C)c2c(N)n(Cc3ccccc3)c(=O)[nH]c2=O)nnc1-c1cccs1	-7	-0.5	-2
56	COc1ccc(C(C)(O)c2nc(-c3ccc(N(C)C)cc3)cs2)cc1 (stereo not given)	-7	-0.4	?
57	COC(=O)Nc1sc2c(c1C(=O)NC1CC1)CCCCCC2	1	0.4	0
58	O=C(CSc1nnc(COc2ccccc2Cl)o1)Nc1ccccc1	-4	0.7	-1
59	CCOC(=O)c1ccc(-c2c(-c3ccc(OC)cc3)oc(=O)c3cc(OC)c(OC)cc23)cc1F	3	0.3	4
60	Cc1ccc(NS(=O)(=O)c2cccc(C(=O)O)c2)cc1S(=O)(=O)N1CCCCC1	-10	0.6	30

No.	CtBP-E1A inh	PINK1 expr mod	D2 ag
51	-9	1.1%	1.6
52	3	0.6%	-4.4
53	8	1.9%	-4.7
54	1	1.1%	-1.4
55	4	0.0%	-4.0
56	?	3.0%	5.8
57	3	-4.1%[38.3 µM]	-0.8
58	4	4.6%	-0.6
59	9	3.3%	1.0
60	6	-0.9%	-2.4

# Remaining list, next part:
No.	compound	D2 PAM	TRPML1 ag	Six1-Eya2 blk
61	COC(=O)c1cc(S(=O)(=O)Nc2cccc(C)c2C)cn1C	1	1.3	24
62	Cc1cc(NC(=O)C2CC2)ncc1NC(=O)c1ccccn1	1	2.7	-8
63	C/C(=N\NC(=O)C(O)(c1ccccc1)c1ccccc1)c1ccc(NC(=O)CCCC(=O)O)cc1	-9	0.6	0
64	CC(=O)Nc1ccc(S(=O)(=O)O)c(OC(C)=O)c1	-5	0.7	6
65	O=C(COc1ccccc1F)NNC(=O)c1ccc(F)c(S(=O)(=O)N2CCOCC2)c1	4	0.0	-12
66	CCOc1ccc(OCC)c(NC(=O)CN2CCN(c3cccc(C)c3)CC2)c1	-28	2.7	?
67	COc1ccc(-c2cc(C(=O)OCC(=O)c3c(N)n(C)c(=O)n(C)c3=O)c3ccccc3n2)cc1	-4	-0.5	-3

No.	CtBP-E1A inh	PINK1 expr mod	D2 ag
61	38	1.5%	7.1
62	1	1.2%	-3.4
63	2	2.0%	-2.3
64	1	-2.4%	-2.5
65	0	1.1%	-3.0
66	-18	0.3%	-5.0
67	5	2.2%	0.8

# Rows are unselected (roughly 1.3% active in at least one column).
